Screens deposited in PubChem BioAssay by National Center for Advancing Translational Sciences (NCATS).
Vaccinia Venus = vaccinia inhibition (Venus reporter); Vaccinia virus Venus reporter expression, fluorescence; Potency, µM (doses to about 36.5 µM), inactives show top-dose activity change, negative = inhibition, usual class: inhibitors; hit rate 0.46% among 330,000; AID 720580; active means well fitted inhibition curve with a large enough effect; inconclusive means small, poorly fitted or top-dose-only effect; inactive means no such curve, though single readings can be large or run the other way; tested in A549 cells; note: nearly all actives have a fitted effect of over 30% in size; inactives centre near -10
Vaccinia mCherry = inhibitors of vaccinia virus infection (mCherry reporter signal); Vaccinia virus mCherry reporter infection, fluorescence; about a quarter of the inactives have no number; Potency, µM (doses to about 36.5 µM), without a hit: at the top dose activity change, negative = inhibition, actives largely listed as inhibitors; hit rate 0.63% among 310,000; active = well fitted inhibition curve with a large enough effect; inconclusive = small, poorly fitted or top-dose-only effect; inactive = no such curve, though single readings can be large or run the other way; tested in A549 cells; note: nearly all actives have a fitted effect of over 35% in size; inactives centre near -10
Starred values were filed as active, the others as inactive; i = inactive; ? = inconclusive; . = no result given; & = joins results of further samples; [ ] = dose if it differs, or a comment. % is set by controls: 0 for no effect and ±100 for the full control effect; potency is the fitted concentration of half-maximal effect.

Value order – Vaccinia Venus | Vaccinia mCherry
1. O=C(Nc1ccc(OC(F)(F)F)cc1)C(Cc1ccccc1)NS(=O)(=O)c1cccc2nsnc12 (stereo not drawn)
 : -21% | -24%
2. O=C(NCc1ccccc1)C1CCCN(C(=O)c2ccc(F)cc2)C1 (stereo not drawn)
 : -14% | i
3. CC(C)(CNC(=O)C1CCCN1C(=O)c1cccs1)N1CCOCC1 (stereo not drawn)
 : -21% | i
4. Cc1cccc(N2CCN(CCCNC(=O)C3CCCN(c4ncnc5c4nc4n5CCCCC4)C3)CC2C)c1 (stereo not drawn)
 : ? | -24%
5. CCOC(=O)c1cc(C)n(CC2CCC(C(=O)Nc3cccc(C(C)=O)c3)CC2)c1C (stereo not drawn)
 : -21% | -23%
6. CC(=O)c1ccc(F)c(-c2cc(C)cc3c2OC(CNC(=O)Cn2nc(C)nc2C)C3)c1 (stereo not drawn)
 : -2% | -14%
7. COc1ccc(OC)c(C2NC(=O)NC(C)=C2C(=O)Nc2cc(C)cc(C)c2)c1 (stereo not drawn)
 : -6% | 1%
8. COC(=O)C1=CN(c2ccc(Oc3ccccc3)cc2)C(N)=C(C#N)C1c1ccc(-c2ccccc2)cc1 (stereo not drawn)
 : -25% | -2%
9. CCC(=O)Nc1ccc(C(=O)N/N=C/c2ccc([N+](=O)[O-])cc2)cc1
 : -4% | -16%
10. CC(=O)c1cccc(NC(=O)Nc2ccc3c(c2)OCO3)c1
 : -8% | -13%
11. CCn1c(=O)n(CC(=O)N2CCC3(CC2)OCCO3)c(=O)c2ccccc21
 : -25% | .
12. COc1cccc(C2=CC(c3ccc(N(C)C)cc3)n3nnnc3N2)c1 (stereo not drawn)
 : 8% | ?
13. COc1ccc(-n2c(=O)c3c4c(sc3n3c(=S)[nH]nc23)CCC4)cc1
 : -10% | -14%
14. COc1ccccc1Nc1nn2c(=O)c3ccc(C(=O)N4CCCCC4)cc3nc2s1
 : -10%&-8% | -4%&-15%
15. Nc1ncc(S(=O)(=O)NCc2cccc(Cl)c2)cn1
 : -3% | -12%
16. CCc1ccccc1NC(=O)Cn1nnc(C(=O)Nc2ccc(C)c(F)c2)c1N
 : -14% | -5%
17. O=C(CCC(=O)Nc1ccccc1)NNC(=O)COc1ccccc1
 : -6% | -14%
18. Cc1cccc(CC(Cc2nc3ccccc3[nH]2)c2nc3ccccc3[nH]2)c1 (stereo not drawn)
 : ? | .
19. Cc1ccccc1-n1nc2c(c1NC(=O)c1cc3ccccc3o1)CS(=O)(=O)C2
 : -6% | -12%
20. CCCc1[nH][nH]c(=O)c1C(c1ccc(Br)cc1)C(C#N)C#N (stereo not drawn)
 : -12% | i
21. CCC(=O)N1CCN(C(=O)c2ccccc2)CC1
 : -7% | i
22. Cn1c(=O)c2ncn(CC(=O)Nc3cc(C(F)(F)F)ccc3N3CCOCC3)c2n(C)c1=O
 : -9% | i
23. CCOC(=O)CSc1nc2ccc(NC(C)=O)cc2s1
 : -5% | -7%
24. CS(=O)(=O)N1CCN(c2nc(-c3ccccc3)cs2)CC1
 : -17% | .
25. O=C(CSC(=S)N1CCCCC1)Nc1ncc2c(n1)CCCC2=O
 : 3% | i
26. Cn1c(=O)c2c(SCC(=O)NCc3ccco3)nc(-c3ccccc3F)nc2n(C)c1=O
 : -13% | 0%
27. CCC(=O)N1N=C(c2ccc(Cl)cc2)CC1c1ccco1 (stereo not drawn)
 : -15% | -28%
28. COCCNC(=O)c1cc(-c2ccccc2)sc1N
 : -14% | ?
29. CCOP(=S)(NN(Cc1ccccc1)C(=O)c1ccccc1)OCC
 : -13% | -17%
30. Cc1cc2ncn(N)c2cc1C
 : -5% | -13%
31. CC(=O)c1ccccc1NC(=O)COC(=O)/C(=C/c1ccccc1)n1nnnc1C
 : -18% | -24%
32. Cc1occc1C(=O)Nc1cccc2ccccc12
 : -16% | -10%
33. COc1ccc(CCCNC(=O)C2Cc3c(-c4ccccc4)ccnc3O2)cc1 (stereo not drawn)
 : -28% | ?
34. CCN1C(=O)[C@H]2[C@H]3CN=C(SCc4ccc(Cl)cc4)N3[C@@](Cc3ccccc3)(C(=O)OC)[C@H]2C1=O
 : -27% | -18%
35. COc1ccc(C(C)=O)cc1CSc1nnc(-c2ccncc2)n1C
 : -16% | i
36. O=C(O)c1ccc(CNCc2cccc(OCc3ccc(F)cc3)c2)cc1
 : -16% | -10%
37. CCc1ccc(OCC(=O)NC(NC(=S)Nc2ccc(Cl)cc2)C(Cl)(Cl)Cl)cc1 (stereo not drawn)
 : ? | -28%
38. COC(=O)c1c(NC(=O)c2ccc(C)cc2)csc1C
 : -1%[7.34 µM] | i[7.34 µM]
39. CCOc1ccc(C(c2c(C)n(C)n(-c3ccccc3)c2=O)c2c(C)n(C)n(-c3ccccc3)c2=O)c(O)c1
 : -2% | -2%
40. O=C(O)CS(=O)(=O)CC(=O)O
 : 1% | .

2 entries from above, in transposed form.
#5 CCOC(=O)c1cc(C)n(CC2CCC(C(=O)Nc3cccc(C(C)=O)c3)CC2)c1C (stereo not drawn)
#6 CC(=O)c1ccc(F)c(-c2cc(C)cc3c2OC(CNC(=O)Cn2nc(C)nc2C)C3)c1 (stereo not drawn)
Screen / compound no.,5,6
Vaccinia Venus,-21%,-2%
Vaccinia mCherry,-23%,-14%

(further entries)
Value order – Vaccinia Venus | Vaccinia mCherry
41. COc1ccc(C(=O)N(Cc2ccco2)Cc2cc3cc(C)ccc3[nH]c2=O)cc1OC
 : -16% | .
42. Cc1ccc(C(=O)N2CCc3ccccc32)cc1NC(=O)c1ccco1
 : -15% | -22%
43. CC(C)(C)S(=O)(=O)c1ccccc1-c1noc(-c2ccccc2)c1C(N)=O
 : -5%[7.34 µM] | i[7.34 µM]
44. CCOC(=O)c1ccc(NC(=O)CSc2cn(CC(=O)N3CCCC3)c3ccccc23)cc1
 : -9%[7.34 µM] | -10%[7.34 µM]
45. CC(C)Sc1sc(C(=O)O)c(-c2ccc(Cl)cc2)c1C#N
 : -2% | -17%
46. O=C(/C=C/c1ccccc1[N+](=O)[O-])OCC(=O)c1ccccc1
 : 0% | -1%
47. Cc1ccccc1Cn1ccc(NC(=O)c2onc(C)c2Cl)n1
 : -3% | -6%
48. CC(C)(C)c1ccc(C(=O)Cn2cnnc2C#N)cc1
 : -14% | ?
49. Cc1cc(C)n2nc(SCC(=O)Nc3ccc(O)cc3)nc2n1
 : 0%&5% | 4%&-5%
50. CCC(C)Sc1nnc(Cc2cc(=O)[nH]c(=O)[nH]2)n1-c1ccc(OC)cc1 (stereo not drawn)
 : 2% | 4%
51. Cc1ccc(/C=C(\C#N)c2nc3ccccc3c(=O)[nH]2)cc1
 : 2% | -9%
52. O=C(COC(=O)CCc1nc2ccccc2s1)NC(=O)NCc1ccco1
 : -9% | i
53. O=S(=O)(Nc1ccc(N2CCOCC2)cc1)c1ccc(F)cc1
 : 1% | -10%
54. O=C(CNC(=O)c1nc[nH]c1C(=O)NCC(=O)OCc1ccccc1)OCc1ccccc1
 : ? | -1%
55. COc1ccc([N+](=O)[O-])cc1NC(=O)/C=C/C(=O)O
 : 3% | -6%
56. O=C(/C=C/c1cn(CC(O)CN2CCCCCC2)c2ccccc12)c1ccccc1 (stereo not drawn)
 : -12% | -9%
57. O=C(CSc1nnnn1Cc1ccccc1)NCCc1ccccc1
 : -28% | -3%
58. O=C(NCC1CCN(Cc2ccc(F)cc2)CC1)c1cc2ccc3cccnc3c2[nH]1
 : ? | -29%
59. CC(=O)c1cc2c(cc1NC(=O)c1cnn(-c3ccc(C)cc3)c1-n1cccc1)OCO2
 : -12% | -14%
60. CCOc1ccc(N(CC)C(=O)Cc2c(C(=O)O)n(C)c3ccccc23)cc1
 : -3% | -20%
61. Cc1cccc(N2C(=O)NC(=O)/C(=C\c3cnc(-c4ccccc4)nc3)C2=O)c1
 : -1% | i
62. Cc1cc2c3ccccc3ncn2n1
 : -9% | i
63. O=C(NC1CC1)C1=C[C@@H](C2CC2)C[C@@H](OCc2ccc(CO)cc2)O1
 : -13% | i
64. CCc1cc[n+](/C(C(=S)Nc2cccc(C)c2)=C(/[O-])c2ccc(C)c([N+](=O)[O-])c2)cc1
 : -8% | i
65. COc1ccccc1N1CCN(Cc2cc(=O)oc3cc(C)ccc23)CC1
 : -10% | 10%
66. CCOc1cccc(CN2CCCC(C(=O)Nc3cccc(-n4cccn4)c3)C2)c1 (stereo not drawn)
 : -26% | -15%
67. CCOC(=O)c1ccccc1NC(=O)CSc1nnnn1C
 : -5% | .
68. COc1cccc(C(Nc2ccccn2)c2c(NC(=O)c3ccco3)sc(C)c2C)c1 (stereo not drawn)
 : -19% | -5%
69. COc1ccc(N(Cc2cc3cc(OC)ccc3[nH]c2=O)C(=O)c2cccc(Cl)c2)cc1
 : -14% | -24%
70. CO[C@@H]1CN(C)C(=O)c2ccc(NC(=O)C3CCC3)cc2OC[C@H](C)N(CC2CCCCC2)C[C@H]1C
 : -29% | -5%
71. CCCN(CCC)CC(C)(C)NS(=O)(=O)c1ccc(Cl)cc1
 : -3% | -26%
72. CC(C)CC(=O)Nc1ccc(-c2nc3ccccc3c(=O)o2)cc1
 : -11% | -19%
73. CCN(CC)S(=O)(=O)c1ccc(N2CCOCC2)c(NC(=O)c2cccc(C#N)c2)c1
 : -11% | i
74. c1ccc(CNn2nnc3ccccc32)cc1
 : -1% | i
75. Cc1cccn2c(=O)c3cc(C(=O)NCc4cccnc4)c(=N)n(CC4CCCO4)c3nc12 (stereo not drawn)
 : -3% | 7%
76. O=C(O)/C=C/C(=O)Nc1ccc(Cc2ccc(NC(=O)/C=C/C(=O)O)cc2)cc1
 : -3% | -11%
77. COc1ccc(-c2cc(CCCC(=O)NCCc3ccccc3)no2)cc1
 : -15% | i
78. CCCCOC(=O)N1CCOCCOCCOCC1
 : 0% | 8%
79. Cc1ccc(S(=O)(=O)NCC(=O)OCc2nnc(-c3ccccc3)o2)cc1C
 : 14% | .
80. COc1cccc(-c2cc(C(=O)NCCCn3ccnc3)c3ccccc3n2)c1
 : 3% | -8%

Shown as labelled records: part of the list above
(68) COc1cccc(C(Nc2ccccn2)c2c(NC(=O)c3ccco3)sc(C)c2C)c1 (stereo not drawn)
  Vaccinia Venus: -19% | Vaccinia mCherry: -5%

(72) CC(C)CC(=O)Nc1ccc(-c2nc3ccccc3c(=O)o2)cc1
  Vaccinia Venus: -11% | Vaccinia mCherry: -19%

(79) Cc1ccc(S(=O)(=O)NCC(=O)OCc2nnc(-c3ccccc3)o2)cc1C
  Vaccinia Venus: 14% | Vaccinia mCherry: .

(63) O=C(NC1CC1)C1=C[C@@H](C2CC2)C[C@@H](OCc2ccc(CO)cc2)O1
  Vaccinia Venus: -13% | Vaccinia mCherry: i

The results go on:
Value order – Vaccinia Venus | Vaccinia mCherry
81. O=C(CCC1CCCCC1)Nc1cc(Cl)ccc1N1CCOCC1
 : -12% | i
82. CN(C)c1ccc(-n2c(CCC(=O)O)ccc2-c2ccccc2)cc1
 : -4% | -11%
83. Cc1cc(NS(=O)(=O)c2ccc(N3C(=O)C4C5C=CC(C5)C4C3=O)cc2)nc(C)n1 (stereo not drawn)
 : -5% | i
84. COc1ccc(S(=O)(=O)N2CCCCCC2)cc1NC(=O)CCNC(=O)c1ccc(Cl)cc1
 : -18% | i
85. CCC(=O)N1CCc2cc(Br)cc(S(=O)(=O)NCCCN(C)Cc3ccccc3)c21
 : -11% | i
86. Cc1ccc(S(=O)(=O)CCc2nc3ccccc3s2)cc1C
 : 6% | .
87. Nc1nn(S(=O)(=O)c2ccccc2)cc1-c1cccc([N+](=O)[O-])c1
 : -5% | -16%
88. COc1ccc(NC(=O)CN2C3CCC2CC(O)(c2cccnc2)C3)cc1OC (stereo not drawn)
 : -13% | -18%
89. O=[N+]([O-])c1ccc(C=NNc2ccc(S(=O)(=O)O)cc2)cc1
 : -1% | i
90. Cc1ccccc1OCC(=O)Nc1cccc(N(C)S(C)(=O)=O)c1
 : -11% | 0%
91. Brc1cc2c(cc1CN1CCc3ccccc3C1)OCO2
 : -10% | -9%
92. CCN1C[C@@H]2[C@@H]3C(=O)N(Cc4ccccc4)C(=O)[C@@H]3[C@](C)(C1=O)N2C(=O)c1ccccc1
 : 0% | i
93. CCOC(=O)Cc1csc(NC(=O)CSc2nnnn2-c2ccc(F)cc2)n1
 : 0% | i
94. O=c1c(/C=C(\O)c2ccc(F)cc2)nc2ccccc2n1-c1ccccc1
 : -6% | 0%
95. COC(=O)C(Cc1ccc(O)cc1)NC(=O)C12CC3CC(CC(C3)C1)C2 (stereo not drawn)
 : 6% | -13%
96. Cc1nnc(SCC(=O)Nc2sccc2C#N)n1Cc1ccccc1
 : -15% | .
97. CN(C)S(=O)(=O)N1CCN(C(=O)c2cccs2)CC1
 : -3% | -12%
98. Cc1c(C(=O)NCC2CCCN(C)C2)cnn1-c1ncc2c(n1)-c1ccccc1CCC2 (stereo not drawn)
 : -12% | -15%
99. COc1ccc(OCc2cc(C(=O)NCC(C)Oc3cccnc3)no2)c(Cl)c1 (stereo not drawn)
 : -16% | -26%
100. CCCCn1c(=O)c(CCC(=O)OCC(=O)NC(=O)NCCC(C)C)nc2ccccc21
 : -7% | i
101. CC1(C(=O)NS(=O)(=O)c2cccs2)CCN1C(=O)c1ccccc1CCc1ccccc1 (stereo not drawn)
 : 2% | 16%
102. CCC1=NN(C(=O)c2ccc(Cl)cc2)C(O)(c2ccc(C)cc2)C1 (stereo not drawn)
 : -9% | ?
103. O=C(NC1CCCc2ccccc21)c1cncc(Br)c1 (stereo not drawn)
 : -2% | .
104. Cc1cc(C)cc(N=Cc2[nH]c3ccc(Br)c(Cl)c3c2O)c1
 : 26% | -18%
105. CN1CCN(c2ccc([N+](=O)[O-])c(N3CCCCC3)c2)CC1
 : -17% | ?

Compounds as they come; any-hit rate near 0.86%.
